Sfp PPTase inh = Sfp phosphopantetheinyl transferase inhibition | Biochemical Sfp PPTase activity, qHTS | Potency, µM, without a hit: max response, negative = inhibition, usual class: inhibitors | actives 3.5% (n = 310,000) | Q9F4F7 | AID 1490; active means well fitted inhibition curve with a large enough effect; inconclusive means small, poorly fitted or top-dose-only effect, or another doubt; inactive means no such curve, though single readings can be large or run the other way;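 further: the enzyme is Sfp with the accession as filed and its product quenches rhodamine fluorescence; potency means the concentration at half of the fitted maximal effect; 0% = enzyme reaction without inhibitor and -100% = no enzyme wells; top concentration of the series not given in the record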
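Buffer: 50 mM Hepes-Na pH 7.6, 10 mM MgCl2, 0.01% Nonidet P-40, 0.01% BSA. Enzyme 15 nM, pre-exposed to compound 15 min; substrates then added and fluorescence change tracked over 30 min.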
ClpP mod = qHTS Assay for Activators of ClpP | ATP-dependent Clp protease proteolytic subunit (Bacillus subtilis (strain 168)), P80244 | purified B. subtilis ClpP, FRET peptide cleavage, 20 min | Potency, µM (series often up to 57.5 µM), for inactives: top-dose activity change, negative = active | actives 1.9% (n = 340,000); active = well fitted falling curve with a large enough effect; inconclusive = small, poorly fitted or top-dose-only effect; inactive = no such curve, though single readings can be large or run the other way; further: potency means the concentration at half of the fitted maximal effect; the source files actives as falling curves though it sought activators and does not explain the sign; nearly all actives have a fitted effect of over 65% in size; many hits overshoot -100%
Target sequence (P80244 whole entry, looked up): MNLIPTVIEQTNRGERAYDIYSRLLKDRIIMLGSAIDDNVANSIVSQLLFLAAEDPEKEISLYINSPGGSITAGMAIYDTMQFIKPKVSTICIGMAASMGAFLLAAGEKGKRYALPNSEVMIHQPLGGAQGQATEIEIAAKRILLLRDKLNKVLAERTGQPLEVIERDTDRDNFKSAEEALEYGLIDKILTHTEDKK
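Buffer: 100 mM Tris/HCl pH8, 100 mM KCl, 0.05% low protease BSA, 2.5% glycerol, 0.01% Tween-20. ClpP 10 microg/mL final; 20 min RT; delta FRET normalized to ADEP and DMSO controls.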
CtBP-E1A blk = blocks the CtBP interaction with E1A. AlphaScreen GST-E1A/His-CtBP binding, 1536-well; stronger effect = lower value; control for the full effect not named in the record. actives 0.49% (n = 340,000). AID 651724. activity change, % (test concentration not listed); in the data active means activity change below about -65%; inconclusive means about -30% to -65%; inactive means above about -30%; further: on the % scale 0 is the no-effect control and ±100 the full control effect; compound concentration not given in the record
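GST-E1A and His-tagged CtBP (125 nM each as 5X stock) were preincubated with pin-transferred compound for 2 h at 37 °C in the dark, then glutathione donor and nickel acceptor beads were added for 1 h before AlphaScreen reading.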
gsp antag = antagonists of gsp mutant (McCune-Albright syndrome). AID 624288. gsp-mutant cells, cAMP HTRF, 30 min; control for the full effect not named in the record. actives 0.4% (n = 340,000). Potency, µM (series often up to 76.9 µM), inactives show top-dose activity change, negative = inhibition, most hits filed as inhibitors; active = falling curve of any shape with a large fitted effect; inconclusive = falling curve, mostly with a smaller effect; inactive = flat or rising curve; cell line not stated here;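 further: intracellular cAMP measured with PDE inhibitor Ro 20-1724 present during compound exposure; potency means the concentration at half of the fitted maximal effect; on the % scale 0 is the no-effect control and ±100 the full control effect; nearly all actives have a fitted effect of over 65% in size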
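Cells, 2000/well, grown 16–24 h in DMEM 10% FBS with 0.5 mg/ml G418, then compounds plus […] (300 uM addition stock), 30 min at 37C. cAMP read by HTRF (cAMP-d2 and anti-cAMP antibody-K in lysis buffer) after 30 min RT.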
Menin-MLL FL inh = menin-MLL binding inhibition, fluorescein peptide | AID 1766 | 290,000 tested, under 10 active | Fluorescence polarization, fluorescein-MLL peptide displacement from menin | FP activity change, % at 61.4 µM; inconclusive = falling polarisation curve, or a change in total fluorescence; inactive = total fluorescence flat and polarisation flat or rising; no compound was filed as active; the % refers to the polarisation; negative = inhibition;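 further: % of control where 0% means no effect; inhibitors lower the polarisation; unlabelled MLL peptide was the positive control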
gsp agonist = agonists of gsp mutant (McCune-Albright syndrome); gsp mutant cells, cAMP HTRF, 30 min; control for the full effect not named in the record; Potency, µM (doses to about 76.9 µM), without a hit: at the top dose activation (cAMP increase), actives largely listed as activators; actives 0.13% (n = 340,000); AID 624287; active = well fitted activation curve with a large enough effect; inconclusive = small, poorly fitted or top-dose-only effect, or another doubt; inactive = no such curve, though single readings can be large or run the other way; cell line not stated here;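 further: phosphodiesterase inhibitor Ro 20-1724 added with compounds to block cAMP breakdown; potency means the concentration at half of the fitted maximal effect; nearly all actives have a fitted effect of over 60% in size; about a fifth of the inactives were tested at one dose only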
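Cells in DMEM/10% FBS with G418 were pretreated with compounds in DMSO plus […] (300 uM stock) for 30 min at 37C. cAMP was measured by HTRF (cAMP-d2 plus anti-cAMP antibody-K) after 30 min at room temperature.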
TRPV1 PAM = potentiators of human vanilloid receptor 1 (TRPV1); Q8NER1; TRPV1-expressing cells, Fluo-8 calcium influx, capsaicin EC20 potentiation; host cell line not named in the record; control for the full effect not named in the record; actives 0.02% (n = 320,000); potentiation, % at 8.33 µM; active means potentiation above 80%; inconclusive means 30% to 80%; inactive means below 30%; further: 0% is about no effect
Target sequence (Q8NER1 whole entry, looked up): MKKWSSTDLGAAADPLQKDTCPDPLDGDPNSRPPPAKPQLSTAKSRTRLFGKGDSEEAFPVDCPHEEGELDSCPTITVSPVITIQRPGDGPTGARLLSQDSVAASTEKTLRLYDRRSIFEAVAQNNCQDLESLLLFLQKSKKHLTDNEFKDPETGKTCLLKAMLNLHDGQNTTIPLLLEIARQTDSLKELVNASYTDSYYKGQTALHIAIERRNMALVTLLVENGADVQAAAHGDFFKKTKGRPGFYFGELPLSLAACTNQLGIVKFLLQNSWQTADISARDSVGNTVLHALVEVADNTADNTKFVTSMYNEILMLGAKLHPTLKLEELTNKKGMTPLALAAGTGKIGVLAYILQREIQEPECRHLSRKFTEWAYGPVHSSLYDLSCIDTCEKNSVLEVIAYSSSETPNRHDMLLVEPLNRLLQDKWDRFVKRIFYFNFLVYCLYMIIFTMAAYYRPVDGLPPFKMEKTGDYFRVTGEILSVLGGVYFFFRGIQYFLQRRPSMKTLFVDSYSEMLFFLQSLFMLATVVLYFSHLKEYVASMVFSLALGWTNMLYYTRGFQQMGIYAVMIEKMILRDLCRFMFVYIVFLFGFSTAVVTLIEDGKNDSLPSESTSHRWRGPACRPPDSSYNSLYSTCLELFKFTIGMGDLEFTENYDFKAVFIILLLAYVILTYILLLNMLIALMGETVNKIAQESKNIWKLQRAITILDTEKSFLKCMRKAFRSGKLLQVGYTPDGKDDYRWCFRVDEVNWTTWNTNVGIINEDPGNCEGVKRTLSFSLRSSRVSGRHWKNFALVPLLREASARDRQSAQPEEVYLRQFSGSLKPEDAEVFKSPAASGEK
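Fluo-8 calcium influx in TRPV1-expressing cells, kinetic read (ex 480/em 520 nm). Compound added and read 3 min for agonist activity, followed by capsaicin at EC20 final and 2 min further read for enhancement.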
* = called active by the depositor; ? = inconclusive; · = not tested or not shown; [ ] = another dose, or the depositor's remark. The order is random (roughly 5.3% active in at least one column).

SMILES	Sfp PPTase inh	ClpP mod	CtBP-E1A blk	gsp antag	Menin-MLL FL inh	gsp agonist	TRPV1 PAM
O=C(Cc1cccc(F)c1)Nc1ccc2c(c1)CCC2	16%	·	-2	1%	-0.6	-49%[inhibitor]	-15
O=C(O)c1ccc(Cl)c(NC(=O)C2CCN(S(=O)(=O)c3ccc4c(c3)OCCO4)CC2)c1	·	3.0%	-8	·	·	-69%[inhibitor]	·
CC(=O)N1N=C(c2ccc(Cl)cc2)OC1(C)C	3%	·	7	3%	1.2	21%[15.4 µM]	-3
C=CCOc1ccc(C2C3=C(CCCC3=O)N(CC(=O)O)C3=C2C(=O)CCC3)cc1OCC	-1%	·	0	4%	2.9	?	?
COc1ccc(C2C(C(C)=O)=C(O)C(=O)N2Cc2cccnc2)cc1 (centres undefined)	-13%	-0.4%	13	4%	-1.9	?	15
COc1ccc(CN=C2NC(=O)CC(C(=O)Nc3ccc([N+](=O)[O-])cc3C)S2)cc1 (centres undefined)	13%	·	-1	-15%	5.4	-7%[15.4 µM]	9
CCCN1C(=O)/C(=C2\SC(=S)N(c3c(C)n(C)n(-c4ccccc4)c3=O)C2=O)c2ccccc21	-15%	·	5	16%	3.8	-6%[15.4 µM]	2
COc1ccc(NC(=O)Nc2ccc3nccnc3c2)cc1	5%	-1.2%	-12	-1%	3.3	-2%	19
COc1ccc(-n2ccn(CC(=O)Nc3ccc(OC)cc3OC)c(=O)c2=O)cc1	18%	1.3%	·	10%	1.1	-28%	3
Cc1cccc(C(=O)Nc2cccc(-c3cnc4ccccc4n3)c2)c1	4%	-5.0%	8	9%	2.3	12%	-6
O=C(OCN1C(=O)c2ccccc2C1=O)C1CCCCC1	-2%	-2.3%	3	-11%	3.7	7%	-3
O=C(c1ccco1)N(Cc1cccs1)C1CCS(=O)(=O)C1 (centres undefined)	1%	-2.8%	-2	0%	-0.4	0%	1
COc1ccc(NC(=O)CCCC2=NS(=O)(=O)c3ccccc3N2)cc1	-1%	-1.3%	2	4%	-3.0	2%	-12
C#CC(CC)(CC)NC(=S)Nc1ccc(S(N)(=O)=O)cc1	5%	-23%	2	3%	1.3	-5%	2
c1ccc2c(c1)OCCOCCOCCO2	10%	·	8	10%	0.6	11%[15.4 µM]	4
COc1ccc(S(=O)(=O)N(C)C[C@H]2Oc3ccc(NC(=O)NC(C)C)cc3C(=O)N([C@H](C)CO)C[C@@H]2C)cc1	·	-2.7%	3	1%	·	15%	·
CCOc1cc(S(=O)(=O)NC2CCCC2)ccc1Cl	13%	0.7%	2	4%	0.8	-15%	-13
COc1cc(NC(=O)CSc2nnc3n2C(C)(C)Cc2ccccc2-3)cc(OC)c1	9%	12%	-3	2%	-1.5	19%	-7
CN(Cc1ccc(Cl)cc1Cl)C(=O)c1cc(=O)c2ccccc2o1	-8%	·	-4	?	3.5	-12%[15.4 µM]	-13
O=S1(=O)NC(=NC2CCCCCC2)c2ccccc21	-17%	-0.5%	6	9%	1.5	-56%	27
COc1ccc(C2=NN(S(C)(=O)=O)C(c3cccs3)C2)cc1OC (centres undefined)	6%	·	1	9%	4.7	22%	-1
Cc1ccc(/C=C/C(=O)N2CCc3ccccc3C2)cc1	0%	?	4	-8%	2.0	-50%[inhibitor]	-3
CSc1sc(C(=O)NCC2CC2)cc1S(=O)(=O)C(C)C	-3%	·	-13	2%	4.1	-4%[15.4 µM]	5
CCOC(=O)c1ccc(Oc2nc(OC)cc(OC)n2)cc1	6%	-2.3%	·	-3%	-1.6	-1%	1

Reprinted at random: two entries already listed.
SMILES	Sfp PPTase inh	ClpP mod	CtBP-E1A blk	gsp antag	Menin-MLL FL inh	gsp agonist	TRPV1 PAM
Cc1cccc(C(=O)Nc2cccc(-c3cnc4ccccc4n3)c2)c1	4%	-5.0%	8	9%	2.3	12%	-6
COc1ccc(S(=O)(=O)N(C)C[C@H]2Oc3ccc(NC(=O)NC(C)C)cc3C(=O)N([C@H](C)CO)C[C@@H]2C)cc1	·	-2.7%	3	1%	·	15%	·

Later entries
SMILES	Sfp PPTase inh	ClpP mod	CtBP-E1A blk	gsp antag	Menin-MLL FL inh	gsp agonist	TRPV1 PAM
C/C(=N\NC(=O)COc1cc(C)cc(C)c1)c1cccc(NC(=O)C2CCC2)c1	1%	0.3%	-4	?	·	-16%	?
Cc1ccc(-c2nc3[nH]c(=O)cc(NC(=O)C(C)C)n3n2)cc1	2%	-1.9%	7	5%	-0.1	-6%	28
CN(C(=O)CSc1nnnn1-c1ccc(Cl)cc1)C1CCS(=O)(=O)C1 (centres undefined)	·	2.0%	3	-2%	·	15%	·
Cc1cccc(C)c1OCc1cc(C(=O)N2CCN(Cc3nccn3C)CC2)no1	9%	2.8%	-11	13%	2.5	1%	8
O=C(Nc1cccnc1)c1cccc(S(=O)(=O)Nc2cccc(Cl)c2)c1	·	-0.1%	-2	-23%	·	14%	3
Cc1ccc(C(=O)NNc2cc(N3CCCC3)nc(N3CCCC3)n2)cc1	-4%	-2.5%	-23	3%	-0.6	7%	·
CCOc1cc(-c2nc(C)c(C(C)=O)n2O)ccc1OCC(=O)Nc1ccccc1	3%	·	-29	-16%	4.4	3%	-1
O=C(Cn1c(C(F)(F)F)nc2ccccc21)c1ccc(Br)cc1	?	-2.3%	6	?	-6.3	21%	-4
C[C@H](CO)N1C[C@H](C)[C@@H](CN(C)C(=O)Nc2ccc3c(c2)OCO3)Oc2ccc(NC(=O)Nc3ccc(C(F)(F)F)cc3)cc2C1=O	·	-3.6%	-10	0%	·	·	·
Cc1ccc(-n2c(SCC(=O)NCCN3C(=O)CSC3=O)nnc2-c2cccc(C)c2)cc1	11%	-1.5%	2	-8%	1.8	2%	-10
CCOc1ccc(Nc2c3c(nc4ncnn24)CC(C)CC3)cc1 (centres undefined)	12%	-0.4%	2	4%	0.6	-7%	8
CCc1nn2c(=O)cc(CSCC(=O)Nc3ccccc3Cl)nc2s1	15%	-1.4%	6	1%	·	?	-6
CS(=O)(=O)N1CCCC(C(=O)NCCCN2CCC(Cc3ccccc3)CC2)C1 (centres undefined)	1%	0.3%	2	1%	-1.5	?	14
Oc1ccc(CN2CCCc3ccccc32)c2cccnc12	-4%	1.6%	0	7%	0.2	-35%	2
COc1ccc(CNCC(O)(c2ccc(F)cc2)c2ccc(F)cc2)cc1OC	-1%	0.1%	-3	-3%	-2.1	-3%	11
Fc1ccc(C2Nc3cccc4cccc(c34)N2)cc1	?	·	1	8%	1.0	3%	28
COc1ccc([C@H]2CC(=O)C=C(c3cc(Cl)cc(Cl)c3)C2)cc1	·	0.3%	4	-3%	·	·	11
Cc1ccc(CNC(=O)C2CCCN(C(=O)N(C)C)C2)cc1 (centres undefined)	9%	-1.7%	-2	6%	1.8	?	3
CCCCN1C(=O)C(=O)N(CC(=O)NC2CCCc3ccccc32)C1=O (centres undefined)	23%	·	24	·	2.3	19%[15.4 µM]	-3
COc1cccc2cc(CC(=O)c3ccccc3)c(=O)oc12	9%	-1.1%	·	1%	1.7	?	-1
COc1ccccc1-c1noc(CCCC(=O)NC2CCCC2)n1	1%	·	0	-1%	1.5	-2%	26
COc1ccc(C[C@H]2CN3C(=NC[C@H]3Cc3ccccc3)N2CCNC(=O)c2ccc(C)c(Br)c2)cc1	50µM*	-1.1%	·	8%	-0.9	1%	?
COc1ccc(CC(=O)NC2=NCCS2)cc1	16%	-0.9%	2	16%	2.1	0%	3
Cc1ccc(-c2ccc(CCC(=O)O)n2CC2CCCO2)cc1 (centres undefined)	3%	25µM*	-6	-9%	-0.6	0%	-8
O=C(CCNS(=O)(=O)c1ccc(Br)s1)NCc1ccccc1Cl	10%	·	9	-6%	1.7	5%	?
CC(C)Oc1ccc(/C(O)=C2/C(=O)C(=O)N(CCN(C)C)C2c2cccs2)cc1 (centres undefined)	16%	-0.2%	-6	8%	6.4	?	9
O=C(NC1CCCC1)C(c1ccco1)N(Cc1ccccc1)C(=O)c1csnn1 (centres undefined)	15%	-0.6%	6	-4%	7.1	10%	·
CCCCCOc1ccc(/C=N/NC(=O)c2nnn(-c3nonc3N)c2CN2CCCCCC2)cc1	·	-2.7%	1	2%	·	-33%	·
COc1ccc(C2CC(=O)C(C=NCCN3CCN(C(=S)Nc4ccccc4)CC3)=C(O)C2)cc1OC (centres undefined)	13%	·	-1	-11%	-0.9	14%[15.4 µM]	0
CC(=O)N1N=C(c2ccc(C)c([N+](=O)[O-])c2)OC1(C)C	7%	1.0%	·	15%	1.7	5%	·
COc1ccc(Cl)cc1NC(=S)NCc1cccs1	10%	·	0	·	9.8	14%[15.4 µM]	-4
O=C1CC(c2ccc(F)cc2)Sc2nc(C34CC5CC(CC(C5)C3)C4)nn21 (centres undefined)	2%	1.0%	-11	3%	-1.8	1%	-5
NC(=O)c1nsc(C(=O)N(c2cccc(F)c2)C(C(=O)NC2CCCC2)c2ccc(O)cc2)c1N (centres undefined)	29%	·	-1	-9%	-7.0	15%	?
Cc1ccccc1C(=O)OC1CCCN(C)C1 (centres undefined)	17%	-0.6%	-6	13%	-0.6	1%	-2
O=C(N/N=C/c1ccc(OCCCF)cc1)c1ccc(C(F)(F)F)cc1	14%	·	0	1%	2.0	?	-10
CC1=NN(c2ccccc2)C(=O)/C1=C\N1CC(C)OC(C)C1 (centres undefined)	-2%	-2.3%	-10	4%	?	-34%	14
Cn1c(=O)oc2cc(S(=O)(=O)Nc3ccc(Cl)cc3)ccc21	12%	0.7%	7	4%	0.3	-14%[15.4 µM]	-7
O=C(NNS(=O)(=O)c1ccccc1)c1cnn(-c2ccc(Cl)cc2)c1C(F)(F)F	13%	1.4%	·	4%	1.3	-5%	-4
Cc1cccc(N2CCN(C(=O)c3ccc(CNc4c(N5CCC(C)CC5)c(=O)c4=O)cc3)CC2C)c1 (centres undefined)	-18%	-1.3%	·	?	0.0	-41%[inhibitor]	-8
CCOC(=O)c1nc(N)c(=O)n(-c2ccccc2)n1	-3%	0.8%	-8	7%	0.4	16%	-5
Cc1nc2ccccc2n1/C(=N/S(=O)(=O)c1ccc(Br)cc1)c1ccccc1	14%	·	·	·	-0.2	·	-2
Cc1cc(C)c2c(NC(=O)C3CC3)nn(C)c2n1	9%	3.7%	-2	-5%	3.7	-27%	14
CC(=NN(Cc1ccccc1)c1ccccc1)c1ccccc1	·	-1.8%	4	4%	·	-19%	·
